Bioassay records: PubChem, National Center for Advancing Translational Sciences (NCATS)
TRPML1 agonist: qHTS for Agonists of the Human Mucolipin Transient Receptor Potential 1 (TRPML1) | 410,000 tested, 0.12% active | Mucolipin-1 (Homo sapiens), Q9GZU1 | activation, % (no concentration beside the values) | TRPML1-expressing cells, Ca2+ dye fluorescence, FDSS; host cell line not named in the record; reference of the full effect not given here; in the data active = activation above about 50%; inconclusive = about 30% to 50%; inactive = below about 30%; also: 0% is about no effect; the text of the record puts the active cut at 80%
Target sequence (Q9GZU1 whole entry, looked up): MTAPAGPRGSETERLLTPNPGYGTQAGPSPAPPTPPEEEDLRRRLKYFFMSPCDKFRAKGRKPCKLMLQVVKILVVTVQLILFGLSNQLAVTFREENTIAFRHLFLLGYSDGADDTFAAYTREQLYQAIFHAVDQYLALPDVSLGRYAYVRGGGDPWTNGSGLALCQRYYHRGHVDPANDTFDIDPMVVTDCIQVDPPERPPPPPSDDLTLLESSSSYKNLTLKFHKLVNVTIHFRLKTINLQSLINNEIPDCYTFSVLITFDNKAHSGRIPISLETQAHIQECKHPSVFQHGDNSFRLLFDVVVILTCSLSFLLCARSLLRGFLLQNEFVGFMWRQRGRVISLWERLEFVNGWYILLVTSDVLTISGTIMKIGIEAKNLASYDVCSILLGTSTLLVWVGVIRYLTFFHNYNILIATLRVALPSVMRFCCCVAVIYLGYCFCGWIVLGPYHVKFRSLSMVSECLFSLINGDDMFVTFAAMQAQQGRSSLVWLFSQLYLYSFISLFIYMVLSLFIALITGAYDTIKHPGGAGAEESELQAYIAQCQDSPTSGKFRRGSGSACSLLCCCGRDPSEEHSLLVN
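TRPML1-DL cells, Tet-induced overnight (~16 h, 37 degrees C), loaded 45-90 min at room temperature with Ca8 no-wash calcium dye plus quencher. FDSS fluorescence: 10 s baseline, compound pin-transfer, 110 s agonist read, then EC80 54-4 (4uM final) and 110 s antagonist read.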
Six1-Eya2 inh: qHTS Assay for Inhibitors of the Six1/Eya2 Interaction; activity change, % (no concentration beside the values); 360,000 tested, 0.56% active; Homeobox protein SIX1 (Homo sapiens) + Protein phosphatase EYA2 (Homo sapiens), …; AlphaScreen GST-Six1/His-Eya2 binding, biochemical; active compounds read low; control for the full effect not named in the record; AID 651725, 2012; in the data active = activity change below about -65%; inconclusive = about -30% to -65%; inactive = above about -30%; also: % is scaled to controls: 0 for no effect and ±100 for the full control effect
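AlphaScreen with GST-Six1 and His-Eya2 (5X mix: 250 nM and 500 nM), glutathione donor and nickel acceptor beads; buffer 50 mM Tris pH 8.0, 300 mM NaCl, 1 mM TCEP; 1 h at 37 C in the dark.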
PINK1 modulator: A Quantitative High throughput Screen to Identify Chemical Modulators of PINK1 Expression; AID 624263, 2012; Potency, µM (highest dose often 76.6 µM), without a hit: top-dose activation (PINK1 increase), hits mostly activators; PINK1 immunofluorescence, high-content cytometry, 24 h; 410,000 tested, 0.2% active; active = well fitted activation curve with a large enough effect; inconclusive = small, poorly fitted or top-dose-only effect; inactive = flat fitted curve, though single readings scatter; cell line not stated here;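 also: potency is read from the fitted curve at half-maximal effect; % of control where 0% means no effect; nearly all actives have a fitted effect of over 65% in size; a mitochondrial uncoupler was the plate control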
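PINK1 protein, normally rapidly degraded, was detected by immunofluorescence after 24 hour compound treatment of a stable cell line. Titration data (5 concentrations) came from laser-scanning cytometry, with CCCP-treated wells as controls.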
D2 PAM: Beta-Arrestin HTS for Positive Allosteric Modulators of the Human D2 Dopamine Receptor: Potentiators. D(2) dopamine receptor (Homo sapiens), P14416. DiscoveRx D2 beta-arrestin cells, luminescence, 90 min; 100% = 57 uM dopamine signal. potentiation, % (no concentration beside the values). 360,000 tested, 0.23% active; active = potentiation of 50% or more; inconclusive = 30% to 50%; inactive = 30% or less;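 also: compound concentration not given in the record; tested on top of an EC20 dose of dopamine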
Target sequence (P14416 whole entry, looked up): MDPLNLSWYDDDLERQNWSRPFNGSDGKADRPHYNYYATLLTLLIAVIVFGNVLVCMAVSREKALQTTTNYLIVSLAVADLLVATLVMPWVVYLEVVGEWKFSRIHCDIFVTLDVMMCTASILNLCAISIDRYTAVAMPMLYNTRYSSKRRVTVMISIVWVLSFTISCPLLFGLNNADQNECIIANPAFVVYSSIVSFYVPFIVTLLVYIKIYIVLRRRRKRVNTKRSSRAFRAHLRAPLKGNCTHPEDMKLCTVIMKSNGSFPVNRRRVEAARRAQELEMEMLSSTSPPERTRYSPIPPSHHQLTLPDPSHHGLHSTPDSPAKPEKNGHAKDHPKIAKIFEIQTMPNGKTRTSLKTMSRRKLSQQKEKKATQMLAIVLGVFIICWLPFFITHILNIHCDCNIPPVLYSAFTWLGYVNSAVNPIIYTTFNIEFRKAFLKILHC
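D2 cells co-treated with compound plus 50 nM dopamine (EC20) for 90 min at 37 deg C to detect potentiation. Beta-arrestin recruitment was read as enzyme-fragment luminescence after 1 h at ambient temperature. Full response was set by 57 uM dopamine.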
TRPML1 inh: qHTS for Inhibitors of the Human Mucolipin Transient Receptor Potential 1 (TRPML1). Mucolipin-1 (Homo sapiens), Q9GZU1. TRPML1-inducible cells, Ca2+ dye fluorescence, FDSS; active compounds read low; inhibition of EC80 agonist-evoked calcium signal. activity change, negative = inhibition, % (concentration not given with the values). 390,000 tested, 0.02% active. AID 624415, 2012; in the data active means activity change below about -50%; inconclusive means about -30% to -50%; inactive means above about -30%;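 also: stimulus is agonist 54-4 at its EC80 concentration; % is scaled to controls: 0 for no effect and ±100 for the full control effect; the text of the record puts the active cut at -80%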
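Tet-induced TRPML1-DL cells loaded with Ca8 no-wash calcium dye were read kinetically on FDSS. Compound addition was followed by EC80 agonist 54-4 (4 uM final); inhibition was read over 110 s.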
D2 agonist: Beta-Arrestin HTS for Positive Allosteric Modulators of the Human D2 Dopamine Receptor: Agonists | activation, % (test concentration not listed) | AID 624465, 2012 | D(2) dopamine receptor (Homo sapiens), P14416 | DiscoveRx PathHunter D2 beta-arrestin, luminescence, 90 min; 100% = 57 uM dopamine signal | 360,000 tested, 0.084% active; in the data active = activation above about 40%; inconclusive = about 15% to 40%; inactive = below about 15%; also: compound concentration not given in the record; the text of the record calls up to 30% inactive
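Agonist mode: compounds alone added to overnight-plated D2 PathHunter cells for 90 min at 37 C, with 57 uM final dopamine (EC100) defining full response. Beta-arrestin recruitment detected by chemiluminescent reagent, read after 1 h at ambient temperature.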
* marks the source's active call; other numbers are inactive results; ? = inconclusive; . = not tested or not shown; [ ] = remark or other dose.

SMILES	TRPML1 agonist	Six1-Eya2 inh	PINK1 modulator	D2 PAM	TRPML1 inh	D2 agonist
Cc1noc(/C=C/N(C)C)c1S(=O)(=O)N(C)CC(=O)NC1CCCCC1	-0.2	1	-2.8%	-2	-2	-3.4
Fc1ccccc1CNc1ccc(Cl)cc1	2.3	13	-1.5%[38.3 µM]	-17	-3	-1.6
Cc1cc(C)c2nc(C(F)(F)F)nc(N3CC(C)OC(C)C3)c2c1 (stereo unspecified)	0.4	10	25%	-6	2	-3.1
CN1CCC(=NNC(=O)CN(c2ccc([N+](=O)[O-])cc2)S(=O)(=O)c2ccccc2)CC1	-0.8	-5	2.6%	-1	-8	3.3
O=C(CSc1nnc(-c2ccccc2F)o1)N1CCc2ccccc21	-0.6	.	8.2%	.	-14	.
CCc1ccc2ncc(C(=O)c3ccccc3)c(N3CCOCC3)c2c1	0.0	-13	3.6%	-1	3	-6.7
CCCNC(=O)C1(C)CCCN(C(=O)Cc2ccc(OC)cc2)C1 (stereo unspecified)	-0.4	5	-1.2%	-3	.	-4.4
O=C(COc1ccccc1)NNC(=O)c1cc2ccccc2o1	-0.4	14	?	-3	-16	3.2
O=C(Nc1cccc(S(=O)(=O)C(F)F)c1)c1ccc(Cl)c(S(=O)(=O)N2CCOCC2)c1	0.5	-1	-5.0%	-20	5	3.7
CC(=O)c1ccc(NC(=O)c2cc(-c3ccc(Cl)c(Cl)c3)on2)cc1	-0.6	.	1.7%	.	-8	.
O=C(Oc1ccc(Cl)cc1N1C(=O)CCC1=O)c1ccco1	-0.9	-2	-0.9%	-3	4	-7.1
OC(Cc1ccccc1)c1ncc(-c2ccc3ccccc3c2)[nH]1 (stereo unspecified)	-0.8	-13	5.4%	-7	.	-2.0
O=C(NCc1ccco1)c1ccc(Cl)c(S(=O)(=O)Nc2ccccc2)c1	-0.1	-10	1.9%	-13	4	-2.3
Cc1nc2ncnn2c(C)c1CCC(=O)N1CCc2ccccc2C1	-0.7	27	-1.6%	-4	-5	-2.0
COCCn1cnc2c1c(=O)n(CC(=O)OCC#N)c(=O)n2Cc1ccccc1	0.5	5	0.4%	-1	-4	2.1
CC(=O)c1ccc(NC(=O)CN2CCC(NC(=O)C3CCCCC3)CC2)cc1	0.9	-4	1.1%	4	5	3.4
Cc1ccc(S(=O)(=O)c2cnc(-c3ccccc3)nc2N2CCN(C)CC2)cc1	1.7	-17	-0.8%	-12	-8	-1.0
O=C(NN=C1CCCCCC1)c1ccc(Cl)s1	-0.6	-4	1.0%	-4	-2	0.6
CN(CC(=O)NCCN1CCOCC1)S(=O)(=O)c1ccc(F)cc1	-0.1	8	2.9%	-7	37	-0.8
Cc1cccc(C)c1NC(=O)CN(C)C(=O)c1ccccc1Cc1ccccc1	-0.3	5	-1.8%	-16	11	-4.5
CCN1CCN(c2cc3c(nn2)Oc2ccccc2N3C)CC1	-0.4	?	0.1%	-35	14	-5.1
Clc1ccccc1CN1CCN(/N=C/C=C\c2ccco2)CC1	-0.6	?	0.2%	-13	13	-4.5
CC1CCCCC1NC(=O)c1nn(C)c(=O)c2ccccc12 (stereo unspecified)	-0.2	1	-0.5%	-11	-11	-3.5
O=C(CCn1c(=O)oc2ccccc21)N1CCOCC1	-0.2	6	-1.3%	15	-11	-0.3
CCOC(=O)c1cc(CC)sc1N	0.8	-8	4.7%	-3	-3	-6.1
COC(=O)c1cccc(C23CC4(C2)[C@H](CN(CC2CCCCC2)[C@@H]4c2ccccc2)C3c2ccccc2)c1 (stereo partly specified)	2.3	-3	-1.1%	-9	22	-2.4
CCOC(=O)Cn1cnc2c(nnn2-c2cccc(Cl)c2)c1=O	-0.3	6	1.3%	-4	-12	5.3
C(=N\c1nc2ccccc2n1CCN1CCCCC1)/c1cccs1	-0.2	10	-0.2%	-16	0	-2.7
Cc1cc(C)c2nc(N(CCCN(C)C)C(=O)c3ccc(S(=O)(=O)N4CC(C)OC(C)C4)cc3)sc2c1 (stereo unspecified)	0.2	5	4.9%	-31	-14	-5.8
O=C(NC(=S)Nc1ccc(N2CCOCC2)cc1)c1cccc([N+](=O)[O-])c1	-0.3	3	6.3%	-9	-12	-3.8
O=C(NCCc1ccccc1)c1ccc(Cl)c(S(=O)(=O)N2CCCC2)c1	1.7	-2	-0.1%	-9	-3	-0.8
O=C(CNC(=O)c1ccc(Br)cc1)Nc1ccc2c(c1)CCC2	0.8	11	4.3%	-17	20	-1.3
COc1cc(C2c3c(-c4c(C)cc(C)cc4O)n[nH]c3C(=O)N2CCCOC(C)C)cc(OC)c1OC (stereo unspecified)	3.2	.	1.9%	.	9	.
O=C(CNC(=O)c1cccs1)Nc1ccncc1	0.6	-12	3.9%	2	-2	-2.2
CCc1nnc(SC(CC)C(=O)Nc2ccc(OC)c(Cl)c2)c2cc3occc3n12 (stereo unspecified)	0.6	.	1.6%	.	16	.
Clc1ccccc1OCCN1CCCCC1	0.1	1	.	-37	0	-4.1
CC(=O)c1ccc(OCC(=O)OCC(=O)c2ccc(S(=O)(=O)N3CCCCC3)cc2)cc1	-0.7	7	-0.7%	-69	-11	-19
CCNC(=O)C1(C)CCCN(CC(=O)c2ccccc2OC)C1 (stereo unspecified)	0.0	-16	1.5%	-10	.	-6.3
COc1cccc(CN2C(=O)NC3(CCCCCC3)C2=O)c1	0.0	1	0.4%	1	4	-2.3
COc1ccc(C(=O)N2CCCC(C(=O)c3ccccc3OC)C2)cc1OC (stereo unspecified)	-0.1	-1	0.3%	-3	2	-0.2
Cc1cc(C(=O)N/N=C/c2cccnc2)n[nH]1	-0.1	5	-0.1%	-4	5	-0.6
Cc1occc1C(=O)NC1CCCCCC1	0.1	-11	0.7%	-20	-7	-4.3
Cc1ccc(S(=O)(=O)N2CCCC2)cc1C(=O)NCCN1CCOCC1	0.1	6	1.9%	-14	-19	2.0
Cc1ccc(S(=O)(=O)N(C)CC(=O)N(CC(C)C)C2CCS(=O)(=O)C2)cc1 (stereo unspecified)	-0.2	-8	1.5%	-8	1	-2.2
CCN=C1SC(CC(=O)NCC)C(=O)N1CC (stereo unspecified)	-0.2	5	1.7%	5	3	0.7
CCCN(CC(=O)Nc1ccccc1C)C(=O)c1ccc2c(c1)OCO2	1.8	3	4.0%	-11	-9	-1.9
CCC(=O)c1cc(F)c(N2CCN(C(=O)c3ccco3)CC2)cc1C	0.5	4	0.2%	0	31	-1.8
C[n+]1cccc(C(=O)NNC(=O)C23CC4CC(CC(C4)C2)C3)c1	-0.1	7	1.5%	-11	8	-4.8
COc1ccccc1-c1noc(CCCC(=O)NCc2ccco2)n1	-1.0	.	-0.2%	.	8	.
C[C@@H]1CN([C@H](C)CO)C(=O)c2c(c3ccccc3n2C)-c2ccccc2CO[C@H]1CN(C)Cc1cccc(C(=O)O)c1	1.1	3	3.4%	3	4	-1.3

Three compounds from above with just TRPML1 inh and D2 agonist.
structure,TRPML1 inh,D2 agonist
CCCNC(=O)C1(C)CCCN(C(=O)Cc2ccc(OC)cc2)C1 (stereo unspecified),.,-4.4
CCN=C1SC(CC(=O)NCC)C(=O)N1CC (stereo unspecified),3,0.7
Cc1ccc(S(=O)(=O)N(C)CC(=O)N(CC(C)C)C2CCS(=O)(=O)C2)cc1 (stereo unspecified),1,-2.2

(further entries)
SMILES	TRPML1 agonist	Six1-Eya2 inh	PINK1 modulator	D2 PAM	TRPML1 inh	D2 agonist
Cn1cccc1Cc1nnc(SCC(=O)N2CCCCCC2)n1-c1ccc(F)cc1	0.2	-12	2.2%	0	1	-0.2
O=C1c2ccccc2C(=O)N1CN(C(=O)COc1ccccc1)c1ccccc1	0.5	-1	-4.7%[38.3 µM]	-13	3	1.4
N#Cc1ccc(C(=O)NC23CC4CC(CC(C4)C2)C3)cc1	-1.5	0	0.0%	-3	-9	-1.8
COc1ccc(C(C(=O)NC2CCCC2)N(C(=O)c2snc(C(N)=O)c2N)C2CCCC2)cc1OC (stereo unspecified)	1.2	1	-0.4%	-9	1	3.0
CC(=O)N/C(=C\c1ccccc1)C(=O)OCC(=O)NC1CCCC1	-0.8	0	2.1%	-9	-7	-7.3
COc1ccc(CN2C(=O)C(NC(=O)c3cccc(C)c3)(C(F)(F)F)N=C2c2ccccc2)cc1 (stereo unspecified)	-0.1	.	2.4%	.	21	.
O=C(Cn1cc([N+](=O)[O-])ccc1=O)NC1CCCCC1	0.1	7	-1.2%	-5	7	-8.2
CN(C)/C=N/c1ncnc2c1cnn2-c1ccc(C(F)(F)F)cn1	0.4	5	-2.6%	5	10	-2.4
C[C@@H]1CN([C@@H](C)CO)C(=O)CCCn2nncc2CO[C@H]1CN(C)C(=O)Nc1ccccc1C(F)(F)F	0.0	-3	1.4%	-3	-5	-2.5
C#CCOc1ccc(/C=C2/C(=O)ON=C2C)cc1Br	0.8	-3	0.6%	-7	-2	-1.1
Cc1ccc(SCCC(=O)Nc2ccccc2C(=O)NC(C)C)cc1	2.2	10	23%	-14	-3	2.0
COc1cc(C(=O)Nc2sc3c(c2C(=O)O)CCC3)cc(OC)c1OC	0.9	2	-1.6%	0	0	0.6
Cc1cc(N2C(=O)CCC2=O)ccc1NC(=O)c1cccs1	-1.3	-1	-0.5%	-1	-14	-3.1
Fc1ccc(-n2c(Cc3ccccc3)nnc2SCc2nc(-c3cccs3)no2)cc1	2.3	-6	.	-19	14	-1.6
Cc1ncc(CSCC(=O)Nc2cc(C(F)(F)F)ccc2Cl)c(CO)c1O	0.8	1	1.6%	-2	3	-0.7
O=C(c1ccco1)N1CCC(c2nc(-c3ccc(F)cc3)no2)CC1	0.1	2	4.2%[38.3 µM]	2	18	0.7
Cc1ccc(NC(=O)CSc2nc3c(c(=O)[nH]2)CN(Cc2ccccc2)CC3)cc1Cl	-0.3	.	-1.1%	.	21	.
Cc1ccccc1Cn1c(C)nc2ccc([N+](=O)[O-])cc2c1=O	0.7	-5	2.4%	0	-2	2.9

Whole records, looked up by structure. Order of screens: TRPML1 agonist	Six1-Eya2 inh	PINK1 modulator	D2 PAM	TRPML1 inh	D2 agonist
O=C(c1ccco1)N1CCC(c2nc(-c3ccc(F)cc3)no2)CC1 in the list: 0.1	2	4.2%[38.3 µM]	2	18	0.7
Cc1ccc(NC(=O)CSc2nc3c(c(=O)[nH]2)CN(Cc2ccccc2)CC3)cc1Cl in the list: -0.3	.	-1.1%	.	21	.
